Source: PubChem BioAssay
TRPML1 blocker – inhibitors of human TRPML1 channel; Q9GZU1; TRPML1-inducible cells, Ca2+ dye fluorescence, FDSS; stronger effect = lower value; inhibition of EC80 agonist-evoked calcium signal; activity change, negative = inhibition, % (test concentration not listed); 0.02% of 390,000 active; AID 624415; in the data active means activity change below about -50%; inconclusive means about -30% to -50%; inactive means above about -30%;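 note: stimulus is agonist 54-4 at its EC80 concentration; % is set by controls: 0 for no effect and ±100 for the full control effect; compound concentration not given in the record; the text of the record puts the active cut at -80%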
Target sequence (Q9GZU1 whole entry, looked up): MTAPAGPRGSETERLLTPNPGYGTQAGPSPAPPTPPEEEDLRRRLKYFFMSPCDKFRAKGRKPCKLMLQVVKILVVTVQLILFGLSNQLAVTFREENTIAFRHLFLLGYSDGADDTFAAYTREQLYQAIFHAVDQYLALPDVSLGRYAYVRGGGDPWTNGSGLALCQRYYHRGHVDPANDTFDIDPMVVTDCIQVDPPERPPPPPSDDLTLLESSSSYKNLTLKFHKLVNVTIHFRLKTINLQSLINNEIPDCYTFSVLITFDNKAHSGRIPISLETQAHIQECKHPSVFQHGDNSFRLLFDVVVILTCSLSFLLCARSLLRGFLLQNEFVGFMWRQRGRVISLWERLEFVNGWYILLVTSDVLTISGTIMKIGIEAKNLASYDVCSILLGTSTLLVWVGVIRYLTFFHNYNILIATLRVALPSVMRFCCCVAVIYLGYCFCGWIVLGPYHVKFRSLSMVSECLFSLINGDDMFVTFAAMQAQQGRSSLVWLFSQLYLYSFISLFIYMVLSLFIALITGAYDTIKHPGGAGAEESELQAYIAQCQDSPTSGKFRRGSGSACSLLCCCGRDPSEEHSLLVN
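TRPML1-DL cells, Tet-induced overnight (~16 h, 37 °C) at 1,500 cells/well, were loaded with Ca8 no-wash dye plus quencher for 45-90 min at room temperature. Compounds were pinned during FDSS kinetic reading; agonist 54-4 at EC80 (4 uM final) then added.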
TRPML1 ag – agonists of human TRPML1 channel. Q9GZU1. TRPML1-expressing cells, Ca2+ dye fluorescence, FDSS; host cell line not named in the record; reference of the full effect not given here. activation, % (test concentration not listed). 0.12% of 410,000 active; in the data active = activation above about 50%; inconclusive = about 30% to 50%; inactive = below about 30%; note: 0% is about no effect; the text of the record puts the active cut at 80%
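TRPML1-DL cells, Tet-induced overnight (~16 h, 37 degrees C), loaded 45-90 min at room temperature with Ca8 no-wash calcium dye plus quencher. FDSS fluorescence: 10 s baseline, compound pin-transfer, 110 s agonist read, then EC80 54-4 (4uM final) and 110 s antagonist read.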
D2 potentiator – positive allosteric modulators of human D2 dopamine receptor. 0.23% of 360,000 active. potentiation, % (test concentration not listed). DiscoveRx D2 beta-arrestin cells, luminescence, 90 min; 100% = 57 uM dopamine signal. AID 624464; active = potentiation of 50% or more; inconclusive = 30% to 50%; inactive = 30% or less;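 note: compound concentration not given in the record; tested on top of an EC20 dose of dopamine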
Target sequence (P14416 whole entry, looked up): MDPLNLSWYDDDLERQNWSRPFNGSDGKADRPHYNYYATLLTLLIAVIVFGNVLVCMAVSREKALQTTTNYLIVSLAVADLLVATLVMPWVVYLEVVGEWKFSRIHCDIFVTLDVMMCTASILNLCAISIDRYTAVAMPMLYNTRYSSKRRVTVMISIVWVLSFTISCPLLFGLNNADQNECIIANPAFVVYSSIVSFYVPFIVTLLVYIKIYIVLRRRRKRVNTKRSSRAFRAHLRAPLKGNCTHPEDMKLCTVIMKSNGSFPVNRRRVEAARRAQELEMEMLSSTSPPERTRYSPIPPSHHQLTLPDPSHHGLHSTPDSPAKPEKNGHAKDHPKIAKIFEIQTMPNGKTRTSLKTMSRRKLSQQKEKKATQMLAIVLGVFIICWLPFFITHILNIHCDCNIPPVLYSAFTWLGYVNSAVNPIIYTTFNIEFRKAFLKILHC
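D2 cells co-treated with compound plus 50 nM dopamine (EC20) for 90 min at 37 deg C to detect potentiation. Beta-arrestin recruitment was read as enzyme-fragment luminescence after 1 h at ambient temperature. Full response was set by 57 uM dopamine.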
CtBP-E1A blk – CtBP/E1A binding inhibition; 0.49% of 340,000 active; AlphaScreen GST-E1A/His-CtBP binding, 1536-well; stronger effect = lower value; control for the full effect not named in the record; activity change, % (test concentration not listed); AID 651724; in the data active means activity change below about -65%; inconclusive means about -30% to -65%; inactive means above about -30%; note: % is set by controls: 0 for no effect and ±100 for the full control effect; compound concentration not given in the record
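Protein mix (5X: 125 nM each GST-E1A, His-CtBP) was incubated with pinned compound 2 h at 37 deg C in dark, in 50 mM Tris pH 8.0 buffer with 300 mM NaCl. Glutathione donor and nickel acceptor beads followed; AlphaScreen signal read after 1 h.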
Six1-Eya2 inh – inhibitors of human Six1/Eya2 interaction | AlphaScreen GST-Six1/His-Eya2 binding, biochemical; stronger effect = lower value; control for the full effect not named in the record | activity change, % (test concentration not listed) | 0.56% of 360,000 active; in the data active = activity change below about -65%; inconclusive = about -30% to -65%; inactive = above about -30%; note: % is set by controls: 0 for no effect and ±100 for the full control effect; compound concentration not given in the record
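Homogeneous AlphaScreen proximity assay pairing GST-Six1 with His-tagged Eya2 (added as 5X mix: 250 nM and 500 nM) in 50 mM Tris pH 8.0, 300 mM NaCl, 1 mM TCEP. Glutathione donor and nickel acceptor beads; 1 h, 37 °C, dark.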
TRPV1 potentiator – potentiators of human vanilloid receptor 1 (TRPV1); TRPV1-expressing cells, Fluo-8 calcium influx, capsaicin EC20 potentiation; host cell line not named in the record; control for the full effect not named in the record; potentiation, % at 8.33 µM; 0.02% of 320,000 active; AID 540277; active means potentiation above 80%; inconclusive means 30% to 80%; inactive means below 30%; note: 0% is about no effect
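TRPV1-expressing cells were cultured overnight at 35.5C and loaded with Fluo-8 calcium dye for 40 to 90 min at room temperature. After a 10 s baseline, compound was added and calcium influx was read kinetically for 3 min (ex 480/em 520 nm).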
* hit, by the source's call; ? = inconclusive; · = not tested or not shown; & = joins results of further samples.

[1] COc1ccc(NC(=O)CN(Cc2ccccc2)S(C)(=O)=O)cc1OC
[2] CCN(CC)C(=O)CN(C#N)c1nc(NC(C)C)nc(NC(C)C)n1
[3] COc1ccc(OCC(=O)Nc2cc(S(=O)(=O)N3CCCC3)ccc2OCC(F)(F)F)cc1
[4] CC(OC(=O)[C@@H](NS(=O)(=O)c1ccccc1)C(C)C)C(=O)c1c(N)n(C)c(=O)n(C)c1=O (some centres not stated)
[5] COc1ccc(Nc2c[nH]c(=O)[nH]c2=O)cc1
[6] CO[C@H]1O[C@H](CBr)[C@@H](OC(=O)c2ccccc2)[C@H](O)[C@H]1O
[7] COc1cccc(N(CC(=O)NC2CCCC2)C(=O)CCCC(=O)Nc2ccccn2)c1
[8] C/C(=N\NC(=O)c1cc2ccccc2cc1O)c1cc2ccccc2o1

screen / no.,1,2,3,4,5,6,7,8
TRPML1 blocker,26,-3,-12,-11,-5,2,46,-11
TRPML1 ag,1.0,-0.3,-0.2,-0.3,-0.4,-0.2,-0.4,0.1
D2 potentiator,-8,-25,3,-7,-14,-3,-4,-7
CtBP-E1A blk,-10,16,6,2,-1,3,17,-14
Six1-Eya2 inh,1,-2,2,5,-2,9,6,-20
TRPV1 potentiator,1,3,15,·,·,·,0,27

[9] CCc1nc(CN2CCN(Cc3ccc(F)c(F)c3)C(CCO)C2)c(C)[nH]1 (configuration not stated)
[10] NC(=O)c1ccccc1
[11] Cc1ccc(NC(=O)c2c(C(F)(F)F)nn(C)c2Cl)cc1C
[12] CC(=O)N1CCCC(c2cc(C(=O)Nc3ccccc3)no2)C1 (configuration not stated)
[13] C[C@H]1COC(=O)[C@H](Cc2ccc(F)cc2)CC/C=C/C[C@@H](CC(=O)N(CCO)Cc2ccccc2)C(=O)N1
[14] CCOC(=O)CSc1nnc(Cc2ccccc2)n1-c1ccc(C)cc1
[15] CCN(C(=O)Cn1c(=O)oc2ccccc21)c1ccc(C)c(C)c1
[16] NC(=O)CC(NC(=O)Cc1ccc(Br)cc1)c1ccc(NCCN2CCCCC2)c([N+](=O)[O-])c1 (configuration not stated)

screen / no.,9,10,11,12,13,14,15,16
TRPML1 blocker,30,7,-3,·,-10,-4,-1,-11
TRPML1 ag,-0.2,-0.4,-0.5,-0.3,-0.8,-0.6,1.5,-0.5
D2 potentiator,-5,-2,-4,-2,·,15,-7,-8
CtBP-E1A blk,-14,3,5,0,1,8,-1,0
Six1-Eya2 inh,1,-2,-1,-15,-1,7,-2,-8
TRPV1 potentiator,3,0,10,·,·,-7,-4,3

[17] COCCCNC(=O)c1ccc2nc3ccccc3c(=O)n2c1
[18] Cc1ccc(N(CC(=O)N/N=C/c2ccco2)S(=O)(=O)c2ccccc2)cc1
[19] CCOC(=O)c1c(SCC(=O)Nc2nccs2)nc(C)c(C)c1C
[20] Cc1ccc(NC(=O)CC(C)CC(=O)NCc2ccccc2)cc1Cl (configuration not stated)
[21] COc1cc(-c2c(C#N)c(N)nc(SCc3ccncc3)c2C#N)cc(OC)c1OC
[22] Cc1ccc(S(=O)(=O)NC(=O)Nc2cccc(C)n2)cc1
[23] O=C(Nc1ccccc1OC(F)F)c1oc2ccccc2c1COc1ccccc1
[24] COc1ccc2cc(-c3[nH]ncc3CN3CCCN(c4ccccc4)CC3)ccc2c1

screen / no.,17,18,19,20,21,22,23,24
TRPML1 blocker,-5,-13,22,-12,-3,2,22,11
TRPML1 ag,3.7,1.9,2.4,-0.1,0.4,1.1,5.2,1.9
D2 potentiator,-9,-10,-2,-2,-5,-6,11,-1
CtBP-E1A blk,?,-4,-3,39,-15,3,-12,-14
Six1-Eya2 inh,?,-1,-1,-2,-8,11,12,?
TRPV1 potentiator,15,3,3,-12,-5,-6,-3,3

[25] O=C(CN(C(=O)Cn1nnc(-c2ccc(F)cc2)n1)C1CCCC1)NC1CCCC1
[26] COc1cc(C=O)ccc1OC(=O)c1ccc(C(C)C)cc1
[27] Cc1ccc(S(=O)(=O)CCC(=O)OCC(=O)NCc2ccc(F)cc2)cc1
[28] CC1(C)OC(=O)C(=NNc2ccccc2)C(=O)O1
[29] CCCOc1c(OC)cccc1C1CC(=O)Nc2cc(OC)c(OC)c(OC)c21 (configuration not stated)
[30] CCOC(=O)c1sc2nc(C(C)C)c3c(c2c1N)CCC3
[31] COc1cc2cc(CN(C(=O)Nc3ccccc3)C3CCCC3)c(=O)[nH]c2cc1OC
[32] Cc1cc(C)n2nc(CC#N)c(C#N)c2n1

screen / no.,25,26,27,28,29,30,31,32
TRPML1 blocker,-9,3,5,-6,-5,-13,7,24
TRPML1 ag,1.6,0.1,-1.0,0.4,0.2,-0.6,-0.7,0.5
D2 potentiator,1,-1,-10,-16,-9,3,-43,-10
CtBP-E1A blk,4,-5,-5,0,-5,25,-6,-1
Six1-Eya2 inh,1,-11,-1,30,-10,-2,-12,3
TRPV1 potentiator,16,10,·,-1,·,-16,3,-8

[33] O=c1c2[nH]c3ccc(F)cc3c2ncn1CCCN1CCOCC1
[34] CN(CC(=O)Nc1cccc(F)c1)C(=O)c1cn(-c2ccccc2)nc1-c1ccc(F)cc1
[35] Cc1cc2ccccc2n1CCNC(=O)Cc1cccc2ccccc12
[36] CN(C)c1ccc2c(c1)Sc1cc(N(C)C)ccc1N2C(=O)c1ccccc1
[37] CC(=O)c1c(C)[nH]c(C(=O)OCn2nnc3ccccc3c2=O)c1C
[38] COC(=O)c1cc(NS(=O)(=O)c2ccc(NC(C)=O)cc2)cc(C(=O)OC)c1
[39] COc1ccc(C(=O)NC(C)c2csc(C)n2)cc1OC1CCN(C(C)=O)CC1 (configuration not stated)
[40] CN1CCN(C(=O)Cn2c(=O)oc3cc(S(=O)(=O)NCc4ccccc4)ccc32)CC1

screen / no.,33,34,35,36,37,38,39,40
TRPML1 blocker,-6,-6,2,-15,11,7,14,3
TRPML1 ag,-0.4,-1.0,0.1,2.2,-0.7,-0.4,-0.1,0.0
D2 potentiator,0,6,-5,-7,-11,-15,-9,-2
CtBP-E1A blk,-3,·,-5,-25,0,42,2,4
Six1-Eya2 inh,0,-3,-1,?,0,0,6,-4
TRPV1 potentiator,-8,-10,20,-20,10,-2,-3,10

[41] Cc1ccc(N2C(=O)C3C4CCC(O4)C3C2=O)c(OC(F)F)c1 (configuration not stated)
[42] O=C1CSC(=S)N1N=Cc1ccccc1O
[43] COc1ccccc1C(=O)NNC(=O)CCCN1C(=O)/C(=C/c2cccs2)SC1=S
[44] Cc1c(C(=O)Nc2cccnc2Cl)oc2ccccc12
[45] COc1cc(C)ccc1S(=O)(=O)NC(=O)Cn1nnc(COc2ccc3c(c2)CCCC3)c1C
[46] COc1ccc(C(=O)n2ncc(C#N)c2N)cc1
[47] C/C=C(\C)CN1CCN(c2cc(C)ccc2C)CC1
[48] CN(C)CCNC(NC(=O)c1cccs1)C(Cl)(Cl)Cl (configuration not stated)

screen / no.,41,42,43,44,45,46,47,48
TRPML1 blocker,21,18,-1,-6,·,15,15,-8
TRPML1 ag,2.0,-0.5,3.3,0.0,-0.3,0.7,-0.7,-0.2
D2 potentiator,-1,-12,-14,-9,4,-1,-20,-17
CtBP-E1A blk,-23,-2,-7,-5,0,24,7,0
Six1-Eya2 inh,-1,-90*,6,-1,-1,1,4,7
TRPV1 potentiator,-15,·,-4,30,·,-9,0,11

[49] Cc1nc(C)n(C(C)CNC(=O)c2cccc(Br)c2)n1 (configuration not stated)
[50] CCOC(=O)c1ccc(OC(=O)CCCCCN=C(N)N)cc1
[51] COc1ccccc1N(C)S(=O)(=O)c1ccc(C(=O)O)cc1
[52] CC(=O)Nc1ccc(NC(=O)CS(=O)(=O)c2cn(CC(=O)N3CCCCC3)c3ccccc23)cc1
[53] N#C/C(=C\c1ccc(N2CCCCC2)c([N+](=O)[O-])c1)c1nn(-c2ccccc2)c(N)c1C#N
[54] Cc1cc2nc(Cl)c(Cl)nc2cc1C
[55] CN(C)C(CNC(=O)c1cccc(S(=O)(=O)Nc2ccccc2Cl)c1)c1ccco1 (configuration not stated)
[56] COC(=O)COc1ccc(/C=C2/NC(=O)N(CC(=O)OC)C2=O)cc1

screen / no.,49,50,51,52,53,54,55,56
TRPML1 blocker,-27,11,-4,11,32,·,-7,47
TRPML1 ag,0.3,-0.3,-0.5,0.1,0.5,·,-0.6,0.9
D2 potentiator,-16,-7,-1,1,14,-2,1,2
CtBP-E1A blk,1,3,12,4,-25,5,0,6
Six1-Eya2 inh,4,-7,-6,2,-8,0,2,6
TRPV1 potentiator,2,·,-1,·,-2,-5,10,-2

Looked up by structure from above, four records:
[54] Cc1cc2nc(Cl)c(Cl)nc2cc1C
[53] N#C/C(=C\c1ccc(N2CCCCC2)c([N+](=O)[O-])c1)c1nn(-c2ccccc2)c(N)c1C#N
[50] CCOC(=O)c1ccc(OC(=O)CCCCCN=C(N)N)cc1
[55] CN(C)C(CNC(=O)c1cccc(S(=O)(=O)Nc2ccccc2Cl)c1)c1ccco1 (configuration not stated)

screen / no.,54,53,50,55
TRPML1 blocker,·,32,11,-7
TRPML1 ag,·,0.5,-0.3,-0.6
D2 potentiator,-2,14,-7,1
CtBP-E1A blk,5,-25,3,0
Six1-Eya2 inh,0,-8,-7,2
TRPV1 potentiator,-5,-2,·,10

New compounds follow
[57] O=C(NCCC1=CCCCC1)c1ccc(Cl)c([N+](=O)[O-])c1
[58] CC(NC(=O)CCc1nnc(-c2ccc(-c3ccccc3)cc2)o1)c1nc2ccccc2[nH]1 (configuration not stated)
[59] COC(=O)[C@@H](NC(=O)c1cc(COc2cncc(Cl)c2)on1)c1ccccc1
[60] CCOC(=O)Cn1nc(C)c(NC(=O)COc2ccc(OC)cc2)c1C
[61] CC(C)Cc1ccc(-c2cc3nc(NCCc4ccc(S(N)(=O)=O)cc4)ccn3n2)cc1
[62] Cc1cc(OCCCC(=O)NCCN2C(=O)S/C(=C\c3cccnc3)C2=O)ccc1Cl
[63] O=C(OCc1ccc(Cl)cc1Cl)c1ccncc1
[64] COc1ccc(CCNC(=O)COc2ccc(N(C)S(=O)(=O)c3ccc(C)cc3)cc2)cc1OC

screen / no.,57,58,59,60,61,62,63,64
TRPML1 blocker,23,32,-2,-1&1,·,5,31,-4
TRPML1 ag,-0.4,-1.4,1.5,0.9&1.1,0.4,-0.8,-0.2,2.1
D2 potentiator,-14,-3,-9,2,2,-3,11,1
CtBP-E1A blk,-21,-11,3,4,-2,-12,6,-3
Six1-Eya2 inh,-5,-17,25,6,-5,-6,14,-18
TRPV1 potentiator,-10,3,-10,-7,·,6,11,-5

[65] CCn1c2c(c(=N)c3c1CCC3)CCCC2
[66] CC1CC(C)CN(S(=O)(=O)c2cccc3cccnc23)C1 (configuration not stated)
[67] CCN(CC(=O)Nc1ccc2c(c1)OCCO2)C(=O)c1ccc(C(F)(F)F)cc1
[68] CCc1nc2ccc(C(=O)NC3CCN(Cc4ccccc4)CC3)cn2c1N(CC)Cc1cccc(Br)c1

screen / no.,65,66,67,68
TRPML1 blocker,-4,16,4,·
TRPML1 ag,-1.1,1.0,1.4,-0.6
D2 potentiator,-16,-8,-17,-12
CtBP-E1A blk,2,1,3,?
Six1-Eya2 inh,-3,-4,3,-13
TRPV1 potentiator,4,·,?,·
